Prx2 Sm inh = blocks S. mansoni peroxiredoxin 2 enzymatic activity | AID 448 | Potency, µM | hit rate 0.07% among 65,000 | S. mansoni Prx2 activity coupled to TGR/GSH (TGR is thioredoxin glutathione reductase), NADPH fluorescence loss, qHTS; some inactives read as strong as hits; active means full or partial inhibition curve with a strong effect at the top dose; inconclusive means weaker partial or single-point curve; inactive means no accepted curve; note: series up to 57 µM; many of its hits are not listed in these tables
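Purified S. mansoni TGR and Prx2 in pH 7.4 phosphate buffer with EDTA and Tween-20 were preincubated with compounds for 15 min. Further NADPH/GSH was added, then a 2.5 mM H2O2 aliquot initiated turnover, followed kinetically by NADPH fluorescence.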
LT uptake inh = blocks cellular internalization of anthrax lethal toxin; Potency, µM (series often up to 40 µM), for the others: at the highest dose activity change, negative = inhibition, most hits filed as inhibitors; Cells, anthrax lethal toxin internalization, FRET ratio (460/530); hit rate 0.67% among 70,000; active = well fitted falling ratio curve with the 530 nm signal flat; inconclusive = other ratio curves, or a change in one channel alone; inactive = flat curves in the ratio and both channels; the % refers to the ratio; note: % is set by controls: 0 for no effect and ±100 for the full control effect; nearly all actives have a fitted effect of over 50% in size; tested in ME-180 cells; beta-lactamase reporter
* hit, by the source's call; ? = inconclusive; / = not tested or not shown; & = joins results of further samples; [ ] = remark or other dose. Potency is the fitted concentration of half-maximal effect.

Results follow in this order: Prx2 Sm inh, LT uptake inh
- COC(=O)[C@@]1(Cc2ccc(OC)cc2)[C@H]2c3cc(C(=O)N(C)C)n(Cc4cccc5ccccc45)c3C[C@H]2CN1C(=O)c1ccccc1
 : >57, ?
- Cc1ccc(-n2c(CNc3ccc(F)cc3)nnc2SCC(=O)N2CCCC2)cc1
 : >57, ?
- c1ccc(-c2nnc(CN3CCCc4ccccc43)o2)cc1
 : >57, ?
- Oc1ccc(Cl)cc1CNCC1CCCO1 (configuration not stated)
 : >57, 1%
- Cc1c2c(nc3ccccc13)-c1cccc(=O)n1C2
 : >57, 13%
- Cc1noc(C)c1C(=O)N1CCC2(CCCN(C(=O)NC(C)C)C2)CC1
 : >57, -5%
- O=C1COc2ccccc2N1Cc1ccccc1Cl
 : >57, -14%
- CCN(CC(=O)NCc1cccs1)C(=O)c1cc(S(=O)(=O)N2CCOCC2)ccc1C
 : >57, 7%
- CCOC(=O)C1CN(S(=O)(=O)c2ccc(C)cc2)CCN1S(=O)(=O)c1ccc(C)cc1 (configuration not stated)
 : >57, -11%
- OB(O)c1ccc(B(O)O)cc1
 : /, -15%
- CCCOc1ccc(N2CC(C(=O)Nc3ccccn3)CC2=O)cc1 (configuration not stated)
 : >57, -8%
- Nc1ccc(N2CCN(Cc3ccccc3Cl)CC2)c(Cl)c1
 : >57, ?
- C=C(C)C(O)/C=C/c1ccc(OC)cc1 (configuration not stated)
 : /, -20%[8 µM]
- CCOC(=O)C1CCCc2c1[nH]c1c(C(=O)O)cccc21 (configuration not stated)
 : /, 0%
- Cn1nnnc1SCCNCc1cccc2ccccc12
 : >57, -1%
- Cn1c(=O)c2[nH]c(-c3ccccc3)nc2n(C)c1=O
 : >57, 5%
- CC1CCC2C(=O)OC(CN=[N+]=[N-])CN2C1c1ccc(Br)cc1 (configuration not stated)
 : /, ?
- Cc1ccc(-n2c(SCC(=O)N3CCOCC3)nnc2-c2cccnc2)cc1C
 : >57, 4%
- CCCCn1c(SCC(=O)c2ccc3c(c2)OCCO3)nnc1-c1ccoc1C
 : >57, -2%
- CCSCC[C@H](N)C(=O)O
 : >57, 2%[8 µM]
- CCCCNC(=O)Cn1c(-c2ccc(OC)cc2)noc1=O
 : >57, -13%
- O=C(Nc1cc(C(F)(F)F)ccc1N1CCOCC1)c1n[nH]c(=O)c2ccccc12
 : >57, -4%
- O=C(NCCC1=CCCCC1)c1cc2c(s1)CS(=O)(=O)C2
 : >57, -17%
- Cc1cc(C)c(NC(=O)CSc2nnc(Cc3cccn3C)n2-c2ccc(F)cc2)c(C)c1
 : >57, -2%
- Cn1c(SCC(=O)c2ccccc2)nc2cccnc21
 : >57, 0%
- CCOc1ccc(C(C)(N)C(=O)O)cc1 (configuration not stated)
 : >57, -27%
- O=C1C2ON(c3ccccc3)C(c3ccccn3)C2C(=O)N1c1ccc(Br)cc1 (configuration not stated)
 : >57, 5%
- COc1ccc(-n2c(SCC(=O)Nc3ccc4c(c3)OCO4)nnc2C(C)N2CCCCC2)cc1 (configuration not stated)
 : >57, -6%
- O=C(CN(Cc1cccs1)C(=O)CN1C(=O)COc2ccccc21)NCc1ccco1
 : >57, 1%
- COc1ncc2nc(C)c(=O)n(-c3ccccc3)c2n1
 : >57, -14%

An excerpt of these results, as labelled records.
mol: O=C(CN(Cc1cccs1)C(=O)CN1C(=O)COc2ccccc21)NCc1ccco1
- Prx2 Sm inh: >57
- LT uptake inh: 1%

mol: O=C1C2ON(c3ccccc3)C(c3ccccn3)C2C(=O)N1c1ccc(Br)cc1 (configuration not stated)
- Prx2 Sm inh: >57
- LT uptake inh: 5%

mol: Cn1c(SCC(=O)c2ccccc2)nc2cccnc21
- Prx2 Sm inh: >57
- LT uptake inh: 0%

Later entries
Results follow in this order: Prx2 Sm inh, LT uptake inh
- COC(=O)c1ccc(CN2C(=O)NC3(CCCCC3C)C2=O)o1 (configuration not stated)
 : >57, 6%
- Cc1cc(C)n(-c2nc(Nc3ccccc3)nc(-n3nc(C)cc3C)n2)n1
 : >57, -5%
- Cn1c(=O)c(=O)n(C)c2cc(S(=O)(=O)CCC(=O)N3CCOCC3)ccc21
 : >57, -10%
- N#CCCN(Cc1cccnc1)S(=O)(=O)c1ccc(S(=O)(=O)N2CCCCCC2)cc1
 : >57, -8%
- O=C(Nc1ccc2c(c1)OCO2)C1CCCN1C(=O)NCc1ccccc1 (configuration not stated)
 : >57, -23%
- O=C1CC(NCc2ccccc2F)C(=O)N1c1ccccc1 (configuration not stated)
 : >57, 3%
- CO[C@]1(C2=NCCN2)COc2ccccc2O1
 : >57&>57, ?
- COC(=O)N1CCC2(CCN(C(=O)Nc3ccccc3)CC2)CC1
 : >57, 1%
- COc1ccccc1NS(=O)(=O)c1ccc(NC(=O)c2nc3ncccn3n2)cc1
 : >57, 2%
- Cc1ccc(NCc2nnc(SCC(=O)Nc3ncc(C)s3)n2CC2CCCO2)c(C)c1 (configuration not stated)
 : >57, 6%
- NC(=O)C1CCCN(C(=O)Nc2cccc3ccccc23)C1 (configuration not stated)
 : >57, -1%
- O=C(CCSc1nc2cc(Cl)ccc2o1)N1CCOCC1
 : >57, -11%
- Cc1nc2nc(-c3ccccc3)cn2nc1C
 : >57, ?
- O=C(CSc1ncn(-c2ccccc2)n1)Nc1ccc2c(c1)OCO2
 : >57, -18%
- N#C/C(=C\Nc1ccccn1)C(=O)C1CC1
 : >57, -13%[8 µM]
- CC1CCN(C(=O)c2cc3ccccc3o2)CC1
 : >57, ?
- Cn1c(=O)[nH]c(=O)c2c1nc(N1CCOCC1)n2CC(O)COc1ccccc1 (configuration not stated)
 : >57, -14%
- CCn1c(C)nc2cc(S(=O)(=O)C(F)(F)C(F)C(F)(F)F)ccc21 (configuration not stated)
 : >57, 8%
- COc1cccc2c1cc([N+](=O)[O-])c1c(C(=O)O)cc3c(c12)OCO3
 : >57, ?
- Cc1nc2cnc(Oc3ccccc3)nc2n(CCC#N)c1=O
 : >57, 4%
- Cc1nc(Nc2ccc(F)cc2)[nH]c(=O)c1CCC(C)C
 : >57, /
- O=S(=O)(NCC1CCCO1)c1cc(Br)c(Br)s1 (configuration not stated)
 : >57, -11%
- COCCCNc1oc(COc2ccc(Cl)cc2Cl)nc1C#N
 : >57, ?
- CCCCN(Cc1ccccc1)C(=O)C1CCCN(S(=O)(=O)c2cnc[nH]2)C1 (configuration not stated)
 : >57, 13%
- COc1ccc(CN2C(=O)CN(C3CCCCCC3)C(=O)C2c2ccc(OC)c(OC)c2)cc1 (configuration not stated)
 : >57, ?
- Cc1ccc(OCC(O)CN2CCN(CC(O)COc3ccc(C)cc3Cl)CC2)c(Cl)c1 (configuration not stated)
 : >57, 1%
- Cc1csc(NC(=O)CSc2nnc(-c3cccs3)n2C)n1
 : >57, 2%
- Cc1ccccc1-n1nc2c(c1NC(=O)c1cc3ccccc3oc1=O)CS(=O)C2 (configuration not stated)
 : >57, -2%
- Cc1csc(NC(=O)c2c(O)c3c(n(CC(C)C)c2=O)CCCC3)n1
 : >57, 9%
- O=C(Nc1nc2ccccc2s1)C1CCCO1 (configuration not stated)
 : >57, 7%

Some of these compounds in order of molecular weight, smallest number first.
Results follow in this order: Prx2 Sm inh, LT uptake inh
- O=C(Nc1nc2ccccc2s1)C1CCCO1 (configuration not stated)
 : >57, 7%
- Cc1nc(Nc2ccc(F)cc2)[nH]c(=O)c1CCC(C)C
 : >57, /
- O=S(=O)(NCC1CCCO1)c1cc(Br)c(Br)s1 (configuration not stated)
 : >57, -11%

2 successive records from above, quoted:
Results follow in this order: Prx2 Sm inh, LT uptake inh
- Cc1csc(NC(=O)CSc2nnc(-c3cccs3)n2C)n1
 : >57, 2%
- Cc1ccccc1-n1nc2c(c1NC(=O)c1cc3ccccc3oc1=O)CS(=O)C2 (configuration not stated)
 : >57, -2%

Remaining list, next part:
Results follow in this order: Prx2 Sm inh, LT uptake inh
- CC(C)C(NC(=O)c1cccs1)C(=O)NC1=NCCS1 (configuration not stated)
 : >57, 21%
- COc1ccc(C2C(=O)c3ccccc3C2=O)c(OC)c1
 : >57, 13%
- CCCCc1cc(=O)oc2cc(C)cc(OCC(=O)O)c12
 : >57, -16%
- COc1ccc(C(=O)Oc2cc(OC)cc(OC)c2C(C)=O)cc1
 : /, -8%[8 µM]
- Cc1ccc(-n2c(=O)cc(N3CCc4ccccc4C3)[nH]c2=O)cc1
 : >57, -17%
- O=C(Cn1c(=O)n(Cc2ccco2)c(=O)c2c3c(sc21)CCCC3)Nc1ccccc1
 : >57, ?
- CC(NC(=O)Cc1cccs1)c1ccncc1 (configuration not stated)
 : >57, -1%
- COc1ccc(CN(C(C)=O)c2cccc(C)c2C)cc1
 : >57, 9%
- COc1cc(S(=O)(=O)N2CCN=C2c2ccccc2)ccc1F
 : >57, ?
- COC(=O)CSc1nc(N2CCOCC2)c2c(c1C#N)CC(C)(C)N(C)C2
 : >57, -3%
- Cc1ccc2cccc(OC(=O)N(C)c3ccccc3)c2n1
 : /, 16µM*
- CN(C)c1ccc(-c2nnn(Cc3ccccc3Br)n2)cc1
 : >57, ?
- COC(=O)COc1cccc(NC(=O)COc2ccccc2)c1
 : >57, -3%
- Cc1nc2c([nH]c3ccc(Br)cc32)s1
 : >57, -13%
- O=C(O)C1C2C=CC(C2)C1C(=O)N1CCN(CCO)CC1 (configuration not stated)
 : >57, -3%
- Cc1ccc2c(c1)NC(=O)C(CC(=O)NCCCN1CCCCC1)O2 (configuration not stated)
 : >57, -4%
- c1ccc2[nH]c(SCCN3CCOCC3)nc2c1
 : /, -3%
- COc1ccc(-n2c(C)nc3c(cnn3-c3ccc(C)c(C)c3)c2=O)cc1
 : >57, ?
- c1ccc2[nH]c(CN3CCCCCC3)nc2c1
 : >57, 9%
- CN(Cc1ccco1)c1cc(-c2cccc(C#N)c2)ncn1
 : >57, -5%
- O=C(CSc1ccc2nnc(-c3ccncc3)n2n1)NCC1CCCO1 (configuration not stated)
 : >57, 0%
- O=C(NC(=O)c1cccc(OC(F)(F)C(F)F)c1)OC1CCS(=O)(=O)C1 (configuration not stated)
 : >57, 2%
- CCC(=O)N(Cc1cc2cc(OC)ccc2[nH]c1=O)c1cccc(C)c1
 : >57, -17%
- COc1ccc(S(=O)(=O)Nc2ccc(F)c(Cl)c2)cc1OC
 : >57, ?
- CN(C)C(=O)CSc1nnc(CCCCCNC(=O)OC(C)(C)C)o1
 : >57, ?
- CCN1CCN(C(C(=O)NC2CCCC2)c2ccc(Cl)cc2)CC1 (configuration not stated)
 : >57, 0%
- O=c1c(-c2ccc(F)cc2)nc2cnc(Nc3ccccc3)nc2n1C1CC1
 : >57, ?
- COC(=O)[C@H](CCSC)NC(=O)NCCC1=CCCCC1
 : >57, ?
- Cc1cc(C)c(C)c(OCC(=O)NCC2CCCO2)c1 (configuration not stated)
 : >57, ?
- CC1CCCN(C(=O)c2ccncc2)C1 (configuration not stated)
 : >57, 14%
- Cc1cc(NC(=O)CSc2nnc(C3COc4ccccc4O3)o2)no1 (configuration not stated)
 : >57, -1%
- COc1ccc(/C(O)=C2/C(=O)C(=O)N(CCCC(=O)O)C2c2ccc(OC)cc2)cc1 (configuration not stated)
 : >57, 9%
- CCC(=O)NC(C)C(c1cccs1)N1CCN(c2ccccc2)CC1 (configuration not stated)
 : >57, -9%
- CC#CCOC(=O)c1c(C)nc2sc3c(c2c1N)CC[C@@H](O)C3
 : >57, -15%&-7%
- CN=CC1=C(O)c2ccccc2C1=O
 : >57, -3%
- O=C(O)c1cc(Cl)ccc1Cl
 : /, ?
- COc1c(F)c(F)c(C(=O)Nc2ccccc2N2CCN(C(=O)C(C)C)CC2)c(F)c1F
 : >57, ?
- COc1ccc(C(=O)N2CCC3(CCN(Cc4ccccc4)CC3)CC2)cc1
 : >57, -3%
- O=C(C1=C(O)C(=O)N(Cc2ccccc2)C1c1cccnc1)c1ccco1 (configuration not stated)
 : >57, -3%
- CCC1(CC)C(=O)NC(=O)NC1=NCCc1c[nH]c2ccccc12
 : >57, 4%
- COc1cccc(C(=O)Nc2ncc3c(n2)CC(C)CC3=O)c1 (configuration not stated)
 : >57, 16%
- O=C1c2cccnc2C(O)N1Cc1ccc(F)cc1 (configuration not stated)
 : >57, -9%
- CCN(CCNC(=O)C1CCCN(S(=O)(=O)CC)C1)c1ccccc1 (configuration not stated)
 : >57, 0%
- COc1cccc2cc(-c3csc(CCn4nc(C)cc4C)n3)c(=O)oc12
 : >57, -2%
- Fc1ccccc1CSc1nnc(-c2ccccc2)o1
 : >57, -16%
- Cc1cc(NC(=O)CSc2nnc(-c3ccoc3C)n2N)no1
 : >57, 4%
- CCOC(=O)C(CC)Sc1nc(N)c(NC(=O)c2ccc(OC)c(OC)c2)c(=O)[nH]1 (configuration not stated)
 : >57, 0%
- Cc1nc2ncnn2c(N2CCC(C(=O)NCC3CCCO3)CC2)c1Cc1ccccc1 (configuration not stated)
 : >57, -10%
- O=C1NC(c2cccs2)Nc2sc3c(c21)CCCC3 (configuration not stated)
 : >57, -17%
- C[C@H]1[C@H](O)[C@@H](C)C=CC=CC=CC=CC=CC=CC=C[C@H](O[C@@H]2O[C@@H](C)[C@H](O)[C@@H](N)[C@@H]2O)C[C@@H]2O[C@](O)(C[C@@H](O)C[C@@H](O)[C@@H](O)CC[C@@H](O)C[C@@H](O)CC(=O)O[C@H]1C)C[C@H](O)[C@H]2C(=O)O
 : >57, ?
- COc1cc(C(=O)OC(C)CN2CCN(C)CC2)cc(OC)c1OC (configuration not stated)
 : >57, -15%
- CCOc1ccc(-c2nnc3ccc(SCC(=O)N4CCCCC4)nn23)cc1
 : >57, 12%

Not all compounds are listed (hit frequency here may not be typical).
